M4 PAM: positive allosteric modulators of human muscarinic M4 receptor. P08173. CHO-K1 hM4/Gqi5, Fluo-8 calcium fluorescence, ACh EC20; 0% = ACh EC20, 100% = maximal ACh. activation, % at 3 µM. 360,000 compounds, 0.4% hits;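 active = activation above its plate's cutoff, the mean activation of sample wells plus 3 SD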; also: some results filed as inactive read as strong as hits
Target sequence (P08173 whole entry, looked up): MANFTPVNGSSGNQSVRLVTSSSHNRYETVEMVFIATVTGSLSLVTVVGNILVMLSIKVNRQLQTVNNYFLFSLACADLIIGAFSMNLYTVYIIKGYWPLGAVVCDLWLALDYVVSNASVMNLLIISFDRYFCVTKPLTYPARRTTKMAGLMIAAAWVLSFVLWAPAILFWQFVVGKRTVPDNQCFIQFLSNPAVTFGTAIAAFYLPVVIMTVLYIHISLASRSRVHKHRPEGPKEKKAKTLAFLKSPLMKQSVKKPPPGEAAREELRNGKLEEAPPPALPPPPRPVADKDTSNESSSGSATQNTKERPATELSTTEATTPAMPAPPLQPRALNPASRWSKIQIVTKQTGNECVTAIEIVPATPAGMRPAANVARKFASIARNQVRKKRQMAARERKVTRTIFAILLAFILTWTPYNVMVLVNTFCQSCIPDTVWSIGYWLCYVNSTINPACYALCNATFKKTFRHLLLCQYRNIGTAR
M5 antag: CHRM5 antagonism in calcium assay; 360,000 compounds, 0.59% hits; CHO-hM5 cells, Fluo-8 calcium fluorescence, ACh EC80; inhibition, % at 3 µM;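 active = inhibition above a per-plate cutoff, the mean of that plate's test compounds plus 3 SD, cut at about 27% in these data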;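 also: 0% = acetylcholine EC80 with DMSO and 100% = DMSO without agonist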
Target sequence (P08912 whole entry, looked up): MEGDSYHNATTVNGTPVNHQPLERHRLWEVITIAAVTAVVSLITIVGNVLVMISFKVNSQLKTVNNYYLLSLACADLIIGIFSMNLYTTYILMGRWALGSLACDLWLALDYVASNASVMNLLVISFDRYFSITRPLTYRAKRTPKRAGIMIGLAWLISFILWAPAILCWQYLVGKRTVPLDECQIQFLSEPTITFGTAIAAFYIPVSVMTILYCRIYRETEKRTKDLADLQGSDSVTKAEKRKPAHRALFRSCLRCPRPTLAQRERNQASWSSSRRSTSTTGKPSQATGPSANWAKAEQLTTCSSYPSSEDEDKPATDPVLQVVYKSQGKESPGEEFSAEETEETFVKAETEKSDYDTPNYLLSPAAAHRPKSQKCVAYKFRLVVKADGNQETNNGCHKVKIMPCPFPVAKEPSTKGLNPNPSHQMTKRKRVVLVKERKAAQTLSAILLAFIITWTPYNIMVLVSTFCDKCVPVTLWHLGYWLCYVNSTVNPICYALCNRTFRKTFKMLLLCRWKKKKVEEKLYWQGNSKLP
M5 ag: CHRM5 agonism in calcium assay; P08912; CHO-K1 hM5 cells, Fluo-8 calcium fluorescence; 0% DMSO wells, 100% maximal acetylcholine response; activation, % at 3 µM; 360,000 compounds, 0.19% hits; AID 624037;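 active = activation above the run's mean over test compounds plus 3 SD, cut at about 23% in these data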;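 also: signal is peak over basal fluorescence ratio across the kinetic read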
CRFR2-BP ag: CRF-BP/CRF-R2 complex agonism; HEK293 CRF-R2/CRF-BP, calcium dye fluorescence (FLIPR); percent of saturating CRF peptide response; activation, % at 13.2 µM; 350,000 compounds, 0.46% hits; AID 588473;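 active = activation of at least 50%, plus an integration ratio under a set limit after plate pattern correction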;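 also: plate controls were neutral control wells without compound for no effect and CRF at EC100 for full effect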
CHRM4 antagonist: blocks acetylcholine activation of human M4 receptor | CHO-hM4 cells, ACh EC80, Fluo-8 calcium fluorescence | inhibition, % at 3 µM | 360,000 compounds, 0.73% hits | AID 624125;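 active = inhibition above its plate's cutoff, the mean inhibition of sample wells plus 3 SD, cut at about 27% in these data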;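 also: 0% = acetylcholine EC80 with DMSO and 100% = DMSO without agonist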
M5 PAM: positive allosteric modulators of human muscarinic M5 receptor. activation, % at 3 µM. CHO-K1 hM5, Fluo-8 calcium, ACh EC20 PAM; 0% = ACh EC20, 100% = ACh EC100. P08912. 360,000 compounds, 0.3% hits;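 active = activation above the run cutoff, the mean activation of all test compounds plus 3 SD, cut at about 18% in these data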
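Assay system: CHO-K1 hM5 cells / Incubation: Fluo-8 loading 80 min at 37 °C plus 30 min room temperature / Technique: Fluo-8 calcium dye fluorescence, kinetic read / Repeats: single replicate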
The depositor's hits bear a star; & = joins results of further samples.

Short keys – A = M4 PAM; B = M5 antag; C = M5 ag; D = CRFR2-BP ag; E = CHRM4 antagonist; F = M5 PAM
NCCCCCC(=O)O
  A = 3; B = 0; C = 0; D = -2.7; E = -22; F = -4
CN1C[C@H](C(=O)N[C@]2(C)O[C@@]3(O)[C@@H]4CCCN4C(=O)[C@H](Cc4ccccc4)N3C2=O)CC2c3cccc4[nH]cc(c34)C[C@H]21 (stereo not given in full)
  A = -4&-8; B = 3&1; C = 0&-1; D = 1.8&5.6; E = -16&-3; F = -6&-8
O=C(O)c1ccccc1
  A = 5; B = 2; C = 0; D = 1.3; E = -18; F = -6
Cc1c(OCC(F)(F)F)ccnc1CS(=O)c1nc2ccccc2[nH]1 (stereo not given)
  A = -1; B = -3; C = 3; D = 0.5; E = -9; F = -6
CC12CCC(CC1=O)C2(C)C (stereo not given)
  A = -2; B = 3; C = -1; D = 2.7; E = -8; F = 2
Nc1nc(Cl)nc2c1ncn2[C@H]1C[C@H](O)[C@@H](CO)O1
  A = 8; B = -4; C = 0; D = 0.0; E = -2; F = 5
CC(/C=C1\SC(=S)N(CC(=O)O)C1=O)=C\c1ccccc1
  A = 7; B = 8; C = -1; D = -2.3; E = 19; F = 6
COC(=O)Nc1nc2ccc(Sc3ccccc3)cc2[nH]1
  A = 11; B = -8; C = 0; D = 0.9; E = -21; F = -3
C[N+](C)(C)CC(O)CC(=O)O (stereo not given)
  A = -1; B = 0; C = 0; D = 0.9; E = 6; F = 1
Cc1ccc(O)c(NC(=S)NC(=O)COc2ccc(Br)cc2)c1
  A = -17; B = 8; C = 31*; D = 195*; E = 25; F = -2

Reformatted as labelled records: entries from further up.
> C[N+](C)(C)CC(O)CC(=O)O (stereo not given)
  M4 PAM: -1	M5 antag: 0	M5 ag: 0	CRFR2-BP ag: 0.9	CHRM4 antagonist: 6	M5 PAM: 1

> CN1C[C@H](C(=O)N[C@]2(C)O[C@@]3(O)[C@@H]4CCCN4C(=O)[C@H](Cc4ccccc4)N3C2=O)CC2c3cccc4[nH]cc(c34)C[C@H]21 (stereo not given in full)
  M4 PAM: -4&-8	M5 antag: 3&1	M5 ag: 0&-1	CRFR2-BP ag: 1.8&5.6	CHRM4 antagonist: -16&-3	M5 PAM: -6&-8

> COC(=O)Nc1nc2ccc(Sc3ccccc3)cc2[nH]1
  M4 PAM: 11	M5 antag: -8	M5 ag: 0	CRFR2-BP ag: 0.9	CHRM4 antagonist: -21	M5 PAM: -3

> CC(/C=C1\SC(=S)N(CC(=O)O)C1=O)=C\c1ccccc1
  M4 PAM: 7	M5 antag: 8	M5 ag: -1	CRFR2-BP ag: -2.3	CHRM4 antagonist: 19	M5 PAM: 6

(listing goes on)
Short keys – A = M4 PAM; B = M5 antag; C = M5 ag; D = CRFR2-BP ag; E = CHRM4 antagonist; F = M5 PAM
c1ccc2c(c1)c1cccc3ccc4cccc2c4c31
  A = 8; B = 10; C = -1; D = 0.2; E = -6; F = -1
CCCC(CCC)C(=O)O
  A = 0&-3; B = -3&5; C = 1&1; D = -1.8&-2.1; E = 1&3; F = 7&-6
CCN(CC)CCc1nc(-c2ccccc2)no1
  A = -1; B = -7; C = -1; D = -0.6; E = -2; F = 4
CCOC(=O)OC(C)OC(=O)[C@@H]1N2C(=O)[C@@H](NC(=O)[C@H](N)c3ccccc3)[C@H]2SC1(C)C (stereo not given in full)
  A = 4; B = 0; C = 1; D = -2.3; E = 4; F = 4
CC(O)CO (stereo not given)
  A = 9; B = -1; C = 2; D = 2.9; E = -2; F = 1
CC[C@H](C)C(=O)O[C@H]1CCC=C2C=C[C@H](C)[C@H](CC[C@@H]3C[C@@H](O)CC(=O)O3)[C@H]21
  A = 3; B = -1; C = 1; D = -0.2; E = -9; F = 2
COc1ncnc(NS(=O)(=O)c2ccc(N)cc2)c1OC
  A = 2; B = -2; C = 0; D = 0.6; E = -13; F = 2
Clc1ccc(C(c2ccccc2Cl)C(Cl)Cl)cc1 (stereo not given)
  A = 9; B = -4; C = -2; D = 1.5; E = -19; F = -8
CCOC(=O)[C@H](CCc1ccccc1)N[C@@H](C)C(=O)N1[C@H](C(=O)O)C[C@@H]2CCC[C@@H]21
  A = -1; B = 1; C = 1; D = 0.0; E = 3; F = -1
CCN(CC)CCOCCOC(=O)C1(c2ccccc2)CCCC1
  A = -17; B = 96*; C = -1; D = -2.2; E = 91*; F = -19
CC(O)(P(=O)(O)O)P(=O)(O)O
  A = -2; B = 2; C = 1; D = -1.1; E = 3; F = -5
CO[C@H]1C=CO[C@@]2(C)Oc3c(C)c(O)c4c(O)c(c(C=NN5CCN(C)CC5)c(O)c4c3C2=O)NC(=O)C(C)=CC=C[C@H](C)[C@H](O)[C@@H](C)[C@@H](O)[C@@H](C)[C@H](OC(C)=O)[C@@H]1C
  A = -4; B = 0; C = 1; D = 7.8; E = 2; F = -5
Cc1ncc([N+](=O)[O-])n1CC(C)O (stereo not given)
  A = -6; B = -3; C = 1; D = -1.6; E = -12; F = -1
C=C1C(=O)O[C@@H]2[C@H]3O[C@]3(C)CC/C=C(\C)CC[C@@H]12
  A = -1; B = 7; C = 2; D = 0.1; E = -3; F = -6
CN1CCc2cccc3c2C1Cc1ccc(O)c(O)c1-3 (stereo not given)
  A = -8; B = 4; C = 36*; D = 0.0; E = 5; F = -7
Nc1ncnc2c1ncn2[C@@H]1O[C@H](CO)[C@@H](O)[C@H]1O
  A = 0; B = 0; C = 1; D = 0.1; E = 1; F = 2
CCC(C)C(=O)OC1CCC=C2C=CC(C)C(CCC3CC(O)CC(=O)O3)C21 (stereo not given)
  A = 6; B = -6; C = 4; D = 1.6; E = -11; F = -1
COc1ccc2c(c1OC)C(=O)OC2C1c2c(cc3c(c2OC)OCO3)CCN1C (stereo not given)
  A = 6&5&-6; B = 4&5&0; C = 1&-1&0; D = -2.3&-1.5&-0.5; E = -18&-3&15; F = 2&-3&7
Nc1ccc(S(=O)(=O)c2ccc(N)cc2)cc1
  A = -9; B = 13; C = 5; D = -1.6; E = -3; F = -14
COc1ccc(C2C(=O)c3ccccc3C2=O)cc1
  A = -1; B = 6; C = 2; D = -1.2; E = -13; F = -8

Sorted by formula weight (descending): part of the list above.
Short keys – A = M4 PAM; B = M5 antag; C = M5 ag; D = CRFR2-BP ag; E = CHRM4 antagonist; F = M5 PAM
CC(O)(P(=O)(O)O)P(=O)(O)O
  A = -2; B = 2; C = 1; D = -1.1; E = 3; F = -5
C[N+](C)(C)CC(O)CC(=O)O (stereo not given)
  A = -1; B = 0; C = 0; D = 0.9; E = 6; F = 1
CCCC(CCC)C(=O)O
  A = 0&-3; B = -3&5; C = 1&1; D = -1.8&-2.1; E = 1&3; F = 7&-6

New compounds follow.
Short keys – A = M4 PAM; B = M5 antag; C = M5 ag; D = CRFR2-BP ag; E = CHRM4 antagonist; F = M5 PAM
NS(=O)(=O)c1cc2c(cc1C(F)(F)F)NCNS2(=O)=O
  A = 11; B = -3; C = 1; D = 1.1; E = -5; F = 3
CC(=O)OCC(=O)NCCCOc1cccc(CN2CCCCC2)c1
  A = 0; B = 1; C = 0; D = -1.2; E = -2; F = -1
CN1C[C@H](C(=O)NC2(C)OC3(O)[C@@H]4CCCN4C(=O)[C@H](Cc4ccccc4)N3C2=O)CC2c3cccc4[nH]cc(c34)C[C@H]21 (stereo not given in full)
  A = -9; B = 5; C = 0; D = 19; E = 8; F = 1
O=c1[nH]c(=O)n(C2CCCO2)cc1F (stereo not given)
  A = 3; B = -10; C = 0; D = -0.9; E = -9; F = 12
Cc1cc(C)nc(NS(=O)(=O)c2ccc(N)cc2)n1
  A = 3; B = 1; C = 0; D = 1.2; E = -5; F = -4
CO[C@H]1/C=C/O[C@@]2(C)Oc3c(C)c(O)c4c(O)c(c5c(c4c3C2=O)NC2(CCN(CC(C)C)CC2)N=5)=NC(=O)/C(C)=C\C=C\[C@H](C)[C@H](O)[C@@H](C)[C@@H](O)[C@@H](C)[C@H](OC(C)=O)[C@@H]1C
  A = -1; B = 6; C = 2; D = -1.2; E = -9; F = 0
C#C[C@]1(OC(C)=O)CCC2C3CCC4=CC(=O)CC[C@@H]4C3CC[C@@]21C (stereo not given in full)
  A = -7; B = 3; C = 27*; D = -1.3; E = -9; F = -17
Cc1ccc(S(=O)(=O)NC(=O)NN2CC3CCCC3C2)cc1 (stereo not given)
  A = 11; B = 5; C = -3; D = -3.0; E = -24; F = 1
C/C=C/c1ccc(O)c(OC)c1
  A = 6; B = 5; C = 0; D = -1.9; E = -11; F = 2
CCC1NC(=O)c2cc(S(N)(=O)=O)c(Cl)cc2N1 (stereo not given)
  A = 8; B = -6; C = 1; D = 1.5; E = -7; F = 5

M5 antag, entries above that show a hit.
Short keys – A = M4 PAM; B = M5 antag; C = M5 ag; D = CRFR2-BP ag; E = CHRM4 antagonist; F = M5 PAM
CCN(CC)CCOCCOC(=O)C1(c2ccccc2)CCCC1
  A = -17; B = 96*; C = -1; D = -2.2; E = 91*; F = -19

Further entries
Short keys – A = M4 PAM; B = M5 antag; C = M5 ag; D = CRFR2-BP ag; E = CHRM4 antagonist; F = M5 PAM
Cc1cccc(CN2CCC(CNC(=O)Nc3ccc(F)c(Cl)c3)CC2)c1
  A = -16; B = 22; C = 9; D = 8.2; E = 9; F = -22
Nc1ccn([C@@H]2O[C@H](CO)[C@@H](O)[C@@H]2O)c(=O)n1
  A = 2; B = -1; C = 0; D = 1.4; E = -5; F = -1
CCCNC(C)C(=O)Nc1ccccc1C (stereo not given)
  A = -4; B = 2; C = 0; D = 0.3; E = -3; F = 2
CCCN1C[C@H](CSC)C[C@@H]2c3cccc4[nH]cc(c34)C[C@H]21
  A = -5; B = 15; C = 0; D = 2.0; E = -1; F = -8
CCOC(=O)N1CCC(=C2c3ccc(Cl)cc3CCc3cccnc32)CC1
  A = -6; B = -6; C = -2; D = -1.3; E = -10; F = 4
Nc1ccc(S(=O)(=O)Nc2ccnn2-c2ccccc2)cc1
  A = 0; B = -3; C = 1; D = 4.8; E = -3; F = -3
CC1OC(OC2C(CO)OC(OC3C(CO)OC(O)C(O)C3O)C(O)C2O)C(O)C(O)C1N[C@@H]1C=C(CO)[C@@H](O)C(O)[C@H]1O (stereo not given in full)
  A = 1; B = 3; C = 1; D = 1.1; E = -1; F = -6
NS(=O)(=O)c1cc2c(cc1Cl)NC(C(Cl)Cl)NS2(=O)=O (stereo not given)
  A = -4; B = -1; C = 0; D = 1.6; E = 4; F = 3
CC(C)(S)[C@@H](N)C(=O)O
  A = -5; B = -1; C = -1; D = 0.5; E = -1; F = -3
CC(=O)O[C@]1(C(C)=O)CC[C@H]2[C@@H]3C=C(Cl)C4=CC(=O)CC[C@]4(C)[C@H]3CC[C@@]21C
  A = -3; B = 8; C = 0; D = 0.8; E = -2; F = -4
CCC(C)C(N)C1=NC(C(=O)N[C@@H](CC(C)C)C(=O)N[C@H](CCC(=O)[O-])C(=O)N[C@H](C(=O)N[C@H]2CCCCNC(=O)[C@H](CC(N)=O)NC(=O)[C@@H](CC(=O)[O-])NC(=O)[C@H](Cc3cnc[nH]3)NC(=O)[C@@H](Cc3ccccc3)NC(=O)[C@H]([C@@H](C)CC)NC(=O)[C@@H](CCCN)NC2=O)[C@@H](C)CC)CS1.[Zn+2] (stereo not given in full)
  A = -2; B = 7; C = 8; D = 5.7; E = 1; F = -7

Assay outcomes (PubChem)

Some of the compounds tested; rates above refer to the full screens.
